Source: PubChem BioAssay (National Center for Advancing Translational Sciences (NCATS))
CtBP-E1A inh = CtBP/E1A binding inhibition; AlphaScreen GST-E1A/His-CtBP binding, 1536-well; stronger effect = lower value; control for the full effect not named in the record; AID 651724; activity change, % (concentration not given with the values); actives 0.49% (n = 340,000); in the data active means activity change below about -65%; inconclusive means about -30% to -65%; inactive means above about -30%; further: on the % scale 0 is the no-effect control and ±100 the full control effect
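Protein mix (5X: 125 nM each GST-E1A, His-CtBP) was incubated with pinned compound 2 h at 37 deg C in dark, in 50 mM Tris pH 8.0 buffer with 300 mM NaCl. Glutathione donor and nickel acceptor beads followed; AlphaScreen signal read after 1 h.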
ClpP mod = qHTS Assay for Activators of ClpP; Potency, µM (top dose mostly 57.5 µM), for the others: at the highest dose activity change, negative = active; actives 1.9% (n = 340,000); AID 651965, 2013; purified B. subtilis ClpP, FRET peptide cleavage, 20 min; active = well fitted falling curve with a large enough effect; inconclusive = small, poorly fitted or top-dose-only effect; inactive = no such curve, though single readings can be large or run the other way; further: potency means the concentration at half of the fitted maximal effect; the source files actives as falling curves though it sought activators and does not explain the sign; nearly all actives have a fitted effect of over 65% in size; many hits overshoot -100%
Target sequence (P80244 whole entry, looked up): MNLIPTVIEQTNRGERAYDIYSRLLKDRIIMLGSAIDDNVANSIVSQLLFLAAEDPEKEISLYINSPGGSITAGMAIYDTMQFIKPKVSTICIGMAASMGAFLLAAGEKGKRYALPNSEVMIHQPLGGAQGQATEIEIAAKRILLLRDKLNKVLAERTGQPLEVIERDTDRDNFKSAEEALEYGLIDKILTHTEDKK
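ClpP 10 microg/mL final, pH 8 Tris/KCl buffer with BSA, glycerol, Tween-20; compound pinned in; FRET-FV substrate; RT 20 min; Ex320/Em430; ΔFRET vs ADEP 5.8 microM, DMSO, no enzyme.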
An asterisk follows results filed as active; ? = inconclusive. Not all compounds are listed; count on the stated rates, not on these rows.

Start of the data: the first 2 entries, to show the layout:
SMILES	CtBP-E1A inh	ClpP mod
COc1cc2c(cc1OC)/C(=C/C(C)=O)OC2	2	-3.2%
Clc1ccc2nc(-c3cccc(Br)c3)c(Cc3ccsc3)n2c1	0	-23%

This part in full, previewed entries included:
SMILES	CtBP-E1A inh	ClpP mod
COc1cc2c(cc1OC)/C(=C/C(C)=O)OC2	2	-3.2%
Clc1ccc2nc(-c3cccc(Br)c3)c(Cc3ccsc3)n2c1	0	-23%
COc1cc(CN2C[C@@H](CO)O[C@@H](n3cnc4c(N5CCCC5)ncnc43)C2)cc(OC)c1OC	-4	-0.6%
O=C(Nc1ccc2c(c1)OCCO2)C(C1CC1)N1CCN(c2ccc(C(F)(F)F)cn2)CC1 (stereo unspecified)	-21	?
Oc1ccc(C[C@@H](CN2CCC[C@@H]2CN2C(=S)NC[C@@H]2Cc2ccccc2)N2C[C@H](Cc3ccccc3)N(CCc3ccccc3)C2=S)cc1	-10	-1.9%
COc1ccc(C(=O)CSC(=S)N2CCCCC2)cc1	15	0.4%
COc1cccc(-c2cc3nc(NCc4cccnc4)n(C)c(=O)c3s2)c1	4	-21%
COc1ccc(Cc2c(-c3ccc(F)cc3)nc3ccc(Cl)cn23)c(C)c1	-1	-15%
CCOC(=O)N1CCN(C(=O)C[C@@H]2C[C@@]3(C(=O)OC)CC(C)(C)CC=C3N(CCc3ccc(OC)c(OC)c3)C2=O)CC1	-3	0.8%
CCCS(=O)(=O)NC(=O)C1(C)CCCN(C(=O)c2ccc3ccccc3n2)C1 (stereo unspecified)	8	0.6%
CC1(C(=O)NS(=O)(=O)c2cccc(OC(F)F)c2)CCN1C(=O)Cc1ccsc1 (stereo unspecified)	3	2.6%
O=C(Nc1ccccc1)Nc1nnc([C@@H]2C[C@H](O)[C@@H](CO)O2)s1	4	-2.4%
COC(=O)C[C@H]1CC[C@@H](NC(=O)c2ccncc2)[C@@H](CO)O1	2	-2.4%
OC[C@H]1O[C@H](c2nc(-c3nc(-c4cccc(-n5cccc5)c4)no3)cs2)C[C@@H]1O	-13	-1.2%
Cc1cccc(C)c1N1C(=O)c2ccccc2NC(=O)C1C(=O)Nc1ccc2c(c1)OCCO2 (stereo unspecified)	2	-5.4%
CCC(=O)N1CCCC(C(=O)NS(=O)(=O)c2cc(C)c(Cl)cc2C)CC1 (stereo unspecified)	-11	-7.6%
OCc1ccccc1-c1cnc2cccnn12	3	4.3%
O=C(NCc1ccccc1)C1C(c2ccc3c(c2)OCO3)=Nc2ccccc2N1C(=O)c1cccc(C(F)(F)F)c1 (stereo unspecified)	2	-28%
COC(=O)c1ccc2nc(-c3ccc(F)cc3)c(Cc3cccc(Cl)c3)n2c1	-5	4.8%
Cc1ccc(CN2C(=O)c3ccccc3C2c2nnnn2-c2c(C)cccc2C)cc1 (stereo unspecified)	-5	-10%
CCNC(=O)C1(C)CCCN(Cc2csc(-c3ccc(Cl)cc3)n2)C1 (stereo unspecified)	0	-2.3%
CC(=O)c1ccc(OCc2nnn(CC(=O)NS(=O)(=O)Cc3ccccc3)c2-c2ccccc2)cc1	2	-0.4%
CC1(C(=O)NCc2ccccc2)CN(S(C)(=O)=O)CC(=O)N1C1CCN(Cc2ccccc2)CC1 (stereo unspecified)	1	-0.7%
CC(C)NC(=O)N1Cc2cc(C(=O)NC3CCC3)nc(-c3cccc(-c4cncnc4)c3)c2[C@H]1CCO	-2	-0.6%
COc1ccc(-c2ccc3nncn3c2)cn1	-6	?
New compounds follow:
SMILES	CtBP-E1A inh	ClpP mod
CS(=O)(=O)Nc1ccc(-c2cnc3cccnn23)cc1	5	-16%
COc1cccc(C(NC(C)=O)c2nc(-c3cc4ccccc4o3)cs2)c1 (stereo unspecified)	3	-0.2%
COc1ccc(C(C)=O)cc1Cn1c(C)c(C(=O)NCc2cccc(C(F)(F)F)c2)sc1=O	-1	-0.7%
O=C(NC1CCCCC1)C(c1ccnc2ccccc12)N1CCc2ccccc2C1 (stereo unspecified)	-3	-23%
O=C(Nc1ccc(Oc2ccccc2)cc1)c1csc([C@@H]2O[C@H](CO)[C@@H](O)[C@H]2O)n1	3	-0.6%
CCOC(=O)C1CCCN(C(=O)c2ccc(N(C)C)cc2)CC1 (stereo unspecified)	1	0.9%
CCOc1cccc(-c2ccc3nncn3c2)c1	-8	-17%
c1cc(-c2cc3nc(NC4CCCCC4)ccn3n2)ccc1OCCN1CCOCC1	-16	4.5%
Nc1cccc(-c2cncc(N3CCN(Cc4ccccn4)CC3)n2)c1	2	-3.6%
Cc1cc(C)cc(-n2c3ccc(NC(=O)Cc4cccc5ccccc45)cc3c(=O)n2C)c1	-10	5.0%
CC(C)CC(N)c1csc(NC(=O)c2cc(C(C)(C)C)nn2Cc2ccccc2)n1 (stereo unspecified)	-5	-2.8%
O=C(Nc1ccccc1)c1cc(C2CCCCN2C(=O)OCc2ccccc2)on1 (stereo unspecified)	3	-2.1%
CCCC(=O)N1CCC1(C)C(=O)Nc1ccccc1C(C)(C)C (stereo unspecified)	2	-0.7%
COc1ccc(CNC(=O)c2[nH]c(C(F)(F)F)nc2-c2ccccc2)cc1OC	-13	-3.2%
COc1ccc(C2=Nc3ccccc3N(C(=O)c3ccc4ncccc4c3)C2C(=O)NC(C)(C)C)cc1 (stereo unspecified)	4	-10%
CCCNC(=O)C1(C)CCCN(C(=O)c2cccc(Cl)c2)C1 (stereo unspecified)	-3	5.3%
CCOC(=O)[C@]12CCCC=C1N(Cc1ccc3c(c1)OCO3)C(=O)[C@H](CC(=O)N1CCCC1)C2	0	0.6%
c1ccc(-c2nc3c4ccccc4ccn3c2Cc2ccsc2)cc1	6	?
Cc1cn([C@H]2C[C@H](O)[C@@H](/C=C/C(=O)NCC(c3ccccc3)c3ccccc3)O2)c(=O)[nH]c1=O	1	0.7%
CCc1nc2c(OCc3ccc(Cl)cc3)cccn2c1N(C)C(=O)c1ccncc1	-1	-0.3%
COc1cccc(Nc2nc(C(N)Cc3ccc(Cl)cc3)cs2)n1 (stereo unspecified)	-16	-0.4%
CC(=O)Nc1ccc(-c2ccnc3c2CC(C)(C(=O)NCC2CCOCC2)O3)cc1 (stereo unspecified)	-19	3.8%
Clc1cccc(Cc2c(-c3cccc(Cl)c3)nc3ccc(Cl)cn23)c1	0	?
CC(C)c1ccc(CC(=O)N2CCC2(C)C(=O)NS(=O)(=O)c2ccc(C(C)(C)C)cc2)cc1 (stereo unspecified)	3	-1.6%
CC1(C(=O)NS(=O)(=O)c2cccc(Cl)c2)CCN1C(=O)Cc1cc(F)ccc1F (stereo unspecified)	4	-0.2%
The list continues.
SMILES	CtBP-E1A inh	ClpP mod
CO[C@H]1CN(C)C(=O)c2cc(NS(=O)(=O)c3ccccc3)ccc2OC[C@@H](C)N(Cc2ccccn2)C[C@@H]1C	-6	-2.7%
OC[C@@H]1CN(Cc2ccc3c(c2)OCO3)C[C@H](n2cnc3c(N4CCOCC4)ncnc32)O1	25	0.9%
COc1cccc(Cn2cnc(-c3ccccc3OC)c2-c2cc(C)cc(C)c2)c1	-1	-11%
CC(=O)Nc1cnc(-c2cccc(C(=O)N3CCOCC3)c2)cn1	4	4.7%
CCNC(=O)c1cc2c(c(-c3cccc(-c4cncnc4)c3)n1)[C@H](CCO)N(C(C)=O)C2	0	1.3%
CC(O)(c1ccccc1)c1nc(-c2cc3ccccc3o2)cs1 (stereo unspecified)	2	-2.6%
CC(=O)NC(c1ccccc1)c1nc(-c2cccc(F)c2)cs1 (stereo unspecified)	7	0.0%
COC(=O)[C@H](Cc1ccccc1)NC(=O)/C=C/[C@H]1O[C@@H](n2ccc(=O)[nH]c2=O)[C@H](O)[C@@H]1O	5	0.6%
Cc1cccc(C)c1-n1nnnc1C(c1ccnc2ccccc12)N1CCOCC1 (stereo unspecified)	7	0.2%
CSc1ccc(CN2C(=O)C(F)(F)Oc3c(C(C)=O)cccc32)cc1	2	1.4%
Cc1ccccc1Nc1nc(N)[nH]c(=O)c1N=O	-86*	-2.3%
CCCC[C@@H]1CC2=C(C(=O)OC(C)(C)O2)[C@H](c2ccc(C(C)C)cc2)O1	4	1.0%
CCNC(=O)C1(C)CCCN(C(=O)c2cc(C)nn2C(C)(C)C)C1 (stereo unspecified)	7	1.2%
c1ccc(-c2nc3ccccc3n2C(c2ccccc2)c2nc3ccccc3[nH]2)cc1 (stereo unspecified)	-5	4.8%
COc1cccc(Cn2c3ccc(NC(=O)Cc4ccccc4C)cc3c(=O)n2C)c1	1	5.0%
COc1cc(C(=O)N2CCC2(C)C(=O)NC(C)C)cc(OC)c1OC (stereo unspecified)	9	-0.1%
CCCCCCCCN1C(=O)[C@H](CC(=O)N2CCOCC2)C[C@@]2(C(=O)OCC)CCCC=C12	-10	-1.8%
COc1ccc(C(C)(O)c2nc(-c3ccc(F)cc3OC)cs2)cc1 (stereo unspecified)	10	-2.1%
O=C(Nc1ccc2c(c1)OCO2)c1cc(C2CCCCN2S(=O)(=O)c2cccs2)on1 (stereo unspecified)	-10	-1.8%
CCCCNC(=O)C1(C)CCC(=O)N1CC(F)(F)F (stereo unspecified)	7	1.2%
Cc1cccnc1C1=NOC(Cc2ccccc2)C(=O)N1C (stereo unspecified)	5	1.9%
CC(C)CCN1CCC(CN2C(=O)C(=O)NC[C@@H]2CC(C)C)CC1	11	-4.2%
C=CCCC(=O)N1C[C@H]2CON(C)[C@H]2C[C@H]1c1ccc(N2CCCCC2)cc1	-1	-2.5%
CC(C)C[C@H]1CNC(=O)C(=O)N1C[C@H]1CCCN1C[C@H](CC(C)C)N1C[C@H](Cc2ccccc2)N(CC2CCCCC2)C(=O)C1=O	26	-1.1%
CC1(C(=O)NCc2cccc3ccccc23)CCN1Cc1cc2ccccc2o1 (stereo unspecified)	-2	0.4%

No new results follow: an excerpt of the list.
SMILES	CtBP-E1A inh	ClpP mod
OC[C@H]1O[C@H](c2nc(-c3nc(-c4cccc(-n5cccc5)c4)no3)cs2)C[C@@H]1O	-13	-1.2%
Cc1cccc(C)c1N1C(=O)c2ccccc2NC(=O)C1C(=O)Nc1ccc2c(c1)OCCO2 (stereo unspecified)	2	-5.4%
CCC(=O)N1CCCC(C(=O)NS(=O)(=O)c2cc(C)c(Cl)cc2C)CC1 (stereo unspecified)	-11	-7.6%
OCc1ccccc1-c1cnc2cccnn12	3	4.3%
O=C(NCc1ccccc1)C1C(c2ccc3c(c2)OCO3)=Nc2ccccc2N1C(=O)c1cccc(C(F)(F)F)c1 (stereo unspecified)	2	-28%
COC(=O)c1ccc2nc(-c3ccc(F)cc3)c(Cc3cccc(Cl)c3)n2c1	-5	4.8%

Returning to the listing, repeating the 2 entries before the break.
SMILES	CtBP-E1A inh	ClpP mod
CC(C)C[C@H]1CNC(=O)C(=O)N1C[C@H]1CCCN1C[C@H](CC(C)C)N1C[C@H](Cc2ccccc2)N(CC2CCCCC2)C(=O)C1=O	26	-1.1%
CC1(C(=O)NCc2cccc3ccccc23)CCN1Cc1cc2ccccc2o1 (stereo unspecified)	-2	0.4%
CCOc1ccc(CCN2C(=S)N([C@@H](Cc3ccc(O)cc3)CN3CCC[C@@H]3CN3C(=S)NC[C@@H]3Cc3ccccc3)C[C@@H]2Cc2ccc(O)cc2)cc1	-10	-2.0%
COc1ccc(Cc2c(-c3ccc(C#N)cc3)nc3c(Cl)cc(C(F)(F)F)cn23)c(C)c1	-9	0.9%
CSCCC(C(=O)NCc1ccccc1)n1c(-c2ccc3c(c2)CCO3)nc2ccccc21 (stereo unspecified)	-1	4.8%
O=C(Nc1ccccc1)c1cc(C2CCCN(C(=O)c3ccccc3)C2)on1 (stereo unspecified)	7	1.1%
COc1ccc(Nc2nc(C)c(C(C)=O)s2)cc1	1	-1.1%
COc1cc(NC(=O)[C@@H]2O[C@H](CO)[C@@H](O)[C@H]2O)cc(OC)c1OC	5	-1.6%
Cc1ccc(S(=O)(=O)N2CCC(=O)N([C@H](COC(=O)Nc3ccccc3)Cc3ccccc3)CC2)cc1	-1	0.7%
CCn1nccc1NC(=O)c1ccc2sc([C@@H]3O[C@H](CO)[C@H](O)[C@H](O)[C@H]3O)nc2c1	3	-1.4%
CC(=O)c1ccc(OC2(C)CCN(Cc3cc4ccccc4[nH]3)C2)cc1 (stereo unspecified)	-5	1.4%
